Screening results (PubChem)
Menin-MLL FL inh = menin-MLL binding inhibition, fluorescein peptide. FP activity change, % at 61.4 µM. Fluorescence polarization, fluorescein-MLL peptide displacement from menin. 290,000 tested, under 10 active; inconclusive = falling polarisation curve, or a change in total fluorescence; inactive = total fluorescence flat and polarisation flat or rising; no compound was filed as active; the % refers to the polarisation; negative = inhibition;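 also: % of control where 0% means no effect; inhibitors lower the polarisation; unlabelled MLL peptide was the positive control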
TRPV1 potentiator = human TRPV1 potentiation; potentiation, % at 8.33 µM; Q8NER1; 320,000 compounds, 0.02% hits; TRPV1-expressing cells, Fluo-8 calcium influx, capsaicin EC20 potentiation; host cell line not named in the record; control for the full effect not named in the record; AID 540277; active means potentiation above 80%; inconclusive means 30% to 80%; inactive means below 30%; also: 0% is about no effect
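TRPV1-expressing cells were cultured overnight at 35.5C and loaded with Fluo-8 calcium dye for 40 to 90 min at room temperature. After a 10 s baseline, compound was added and calcium influx was read kinetically for 3 min (ex 480/em 520 nm).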
PINK1 modulator = modulators of PINK1 expression; 410,000 compounds, 0.2% hits; PINK1 immunofluorescence, high-content cytometry, 24 h; Potency, µM (top dose mostly 76.6 µM), for the others: at the top dose activation (PINK1 increase), hits mostly activators; AID 624263; active = well fitted activation curve with a large enough effect; inconclusive = small, poorly fitted or top-dose-only effect; inactive = flat fitted curve, though single readings scatter; cell line not stated here;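 also: potency is read from the fitted curve at half-maximal effect; % of control where 0% means no effect; nearly all actives have a fitted effect of over 65% in size; a mitochondrial uncoupler was the plate control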
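Stable cell line treated 24 h with compounds at 5 concentrations (CCCP controls), then fixed and immunostained for PINK1 plus nuclear and cell stains; PINK1 immunofluorescence quantified by laser-scanning microplate cytometry.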
Sfp inh = Sfp phosphopantetheinyl transferase inhibition. Potency, µM, without a hit: max response, negative = inhibition, actives largely listed as inhibitors. Biochemical Sfp PPTase activity, qHTS. AID 1490. Q9F4F7. 310,000 compounds, 3.5% hits; active = well fitted inhibition curve with a large enough effect; inconclusive = small, poorly fitted or top-dose-only effect, or another doubt; inactive = no such curve, though single readings can be large or run the other way;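 also: the enzyme is Sfp with the accession as filed and its product quenches rhodamine fluorescence; potency is read from the fitted curve at half-maximal effect; 0% = enzyme reaction without inhibitor and -100% = no enzyme wells; top concentration of the series not given in the record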
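Step 1, compound plus 15 nM Sfp-PPTase, 15 min, room temperature. Step 2, add rhodamine-CoA (5 uM) and BHQ-2-YbbR (12.5 uM). Step 3, read 525/598 nm fluorescence at 0 and 30 min.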
TRPML1 ag = activates the human TRPML1 channel; Q9GZU1; TRPML1-expressing cells, Ca2+ dye fluorescence, FDSS; host cell line not named in the record; reference of the full effect not given here; activation, % (no concentration beside the values); 410,000 compounds, 0.12% hits; in the data active = activation above about 50%; inconclusive = about 30% to 50%; inactive = below about 30%; also: 0% is about no effect; the text of the record puts the active cut at 80%
Target sequence (Q9GZU1 whole entry, looked up): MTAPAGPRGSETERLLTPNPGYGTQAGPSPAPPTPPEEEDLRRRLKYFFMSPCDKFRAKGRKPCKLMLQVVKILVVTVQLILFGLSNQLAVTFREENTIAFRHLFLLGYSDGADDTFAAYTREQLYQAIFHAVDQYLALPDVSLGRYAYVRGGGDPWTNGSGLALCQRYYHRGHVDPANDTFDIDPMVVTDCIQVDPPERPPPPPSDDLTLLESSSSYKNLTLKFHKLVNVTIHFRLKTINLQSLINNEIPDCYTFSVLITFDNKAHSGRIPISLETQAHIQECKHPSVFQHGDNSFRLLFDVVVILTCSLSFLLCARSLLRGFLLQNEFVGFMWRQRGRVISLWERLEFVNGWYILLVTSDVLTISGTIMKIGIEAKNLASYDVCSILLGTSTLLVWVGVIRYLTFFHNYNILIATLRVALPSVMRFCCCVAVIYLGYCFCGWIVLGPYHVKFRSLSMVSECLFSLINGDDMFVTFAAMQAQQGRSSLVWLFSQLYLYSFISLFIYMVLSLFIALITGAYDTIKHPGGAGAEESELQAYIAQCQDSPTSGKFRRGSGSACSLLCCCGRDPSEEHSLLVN
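Tetracycline-induced TRPML1-DL cells are seeded and incubated overnight before loading with a no-wash Ca2+ dye and quencher. Agonist activity is taken from the 110 s fluorescence read following compound pin-transfer on an FDSS, before EC80 54-4 challenge.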
ClpP mod = qHTS Assay for Activators of ClpP; ATP-dependent Clp protease proteolytic subunit (Bacillus subtilis (strain 168)), P80244; purified B. subtilis ClpP, FRET peptide cleavage, 20 min; Potency, µM (series often up to 57.5 µM), without a hit: at the highest dose activity change, negative = active; 340,000 compounds, 1.9% hits; AID 651965, 2013; active = well fitted falling curve with a large enough effect; inconclusive = small, poorly fitted or top-dose-only effect; inactive = no such curve, though single readings can be large or run the other way; also: potency is read from the fitted curve at half-maximal effect; the source files actives as falling curves though it sought activators and does not explain the sign; nearly all actives have a fitted effect of over 65% in size; many hits overshoot -100%
Target sequence (P80244 whole entry, looked up): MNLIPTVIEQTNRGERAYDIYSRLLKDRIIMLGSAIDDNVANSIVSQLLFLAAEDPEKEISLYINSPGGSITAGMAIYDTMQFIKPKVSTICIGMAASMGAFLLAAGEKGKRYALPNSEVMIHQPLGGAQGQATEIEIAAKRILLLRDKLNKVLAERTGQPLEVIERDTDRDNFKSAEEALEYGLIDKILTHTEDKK
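Purified B. subtilis ClpP, 10 microg/mL final in Tris/HCl pH8 with KCl, BSA, glycerol and Tween-20, cleaved an Abz/nitrotyrosine-quenched decapeptide. Fluorescence (ex 320, em 430) was read at 0 and 20 min at room temperature. Delta was normalized to 5.8 microM ADEP and DMSO/no-enzyme controls.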
TRPML1 blocker = blocks the human TRPML1 channel; TRPML1-inducible cells, Ca2+ dye fluorescence, FDSS; hits give low values; inhibition of EC80 agonist-evoked calcium signal; activity change, negative = inhibition, % (concentration not given with the values); Q9GZU1; AID 624415; 390,000 compounds, 0.02% hits; in the data active means activity change below about -50%; inconclusive means about -30% to -50%; inactive means above about -30%;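 also: stimulus is agonist 54-4 at its EC80 concentration; % is scaled to controls: 0 for no effect and ±100 for the full control effect; the text of the record puts the active cut at -80%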
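Tet-induced TRPML1-DL cells loaded with Ca8 no-wash calcium dye were read kinetically on FDSS. Compound addition was followed by EC80 agonist 54-4 (4 uM final); inhibition was read over 110 s.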
* hit, by the source's call; ? = inconclusive; . = no result given; & = joins results of further samples; [ ] = remark or other dose.

1. COc1ccc(OCCCN2CCCC(C)C2)cc1 (stereo not given)
2. COc1cc(CN2CCN(c3cccc(C)c3C)CC2)cc(OC)c1O
3. CCN1CCN(CCNC(=O)c2ccc3c(c2)NC(=O)/C(=C\c2ccc(OC)c(OC)c2)S3)CC1
4. COc1ccc(C2=CC3=C(Br)C(=O)C(C)(OC(=O)c4ccco4)C(=O)C3=CO2)cc1 (stereo not given)
5. O=c1c2ccccc2oc2ccc(Oc3ccccc3)cc12
6. Cc1csc(=O)n1CC(=O)OCC(=O)N(CC(C)C)c1c(N)n(Cc2ccccc2)c(=O)[nH]c1=O

compound no.	1	2	3	4	5	6
Menin-MLL FL inh	-0.9	3.0	.	?	0.6	.
TRPV1 potentiator	-6	-2	17	-3	2	4
PINK1 modulator	2.5%	48%[38.3 µM]	0.0%	6.3%	5.8%	-0.1%
Sfp inh	0%	-15%	-5%	?	-12%	.
TRPML1 ag	-0.2	0.0	3.1	7.2	0.7&0.5	0.2
ClpP mod	2.2%	-4.3%	-1.7%	3.3%	?	.
TRPML1 blocker	-1	2	-10	1	55	-4

7. COc1ccccc1CNC(=O)c1cnn2c(C)c(Cc3ccc(F)cc3)c(C)nc12
8. N#C/C(=C\c1cc(Cl)cc(Cl)c1O)C(=O)NC1CCCCC1
9. Cc1cccc(NC(=S)NCCc2ccc(S(N)(=O)=O)cc2)c1C
10. O=C(Nc1ccc(S(=O)(=O)N2CCOCC2)cc1)c1ccc([N+](=O)[O-])cc1Cl
11. O=C(COc1ccc2c3c(c(=O)oc2c1)CCC3)NC1CCCCC1
12. COc1ccc(NC(=O)CCCCCN2C(=O)c3ccccc3C2=O)c(OC)c1

compound no.	7	8	9	10	11	12
Menin-MLL FL inh	.	?	1.5	-0.2	1.0	0.6
TRPV1 potentiator	.	-32	?	-7	10	21
PINK1 modulator	-0.3%	1.5%[38.3 µM]	-0.1%	-0.1%	1.7%[38.3 µM]	1.8%
Sfp inh	.	-5%	1%	1%	-9%	19%
TRPML1 ag	0.9	6.8	1.4	0.8	-0.5	-0.1
ClpP mod	?	?	.	-2.3%	14µM*	1.8%
TRPML1 blocker	-4	-1	-12	24	-17	5

Reformatted: entries from further up
#	smiles	Menin-MLL FL inh	TRPV1 potentiator	PINK1 modulator	Sfp inh	TRPML1 ag	ClpP mod	TRPML1 blocker
6	Cc1csc(=O)n1CC(=O)OCC(=O)N(CC(C)C)c1c(N)n(Cc2ccccc2)c(=O)[nH]c1=O	.	4	-0.1%	.	0.2	.	-4
7	COc1ccccc1CNC(=O)c1cnn2c(C)c(Cc3ccc(F)cc3)c(C)nc12	.	.	-0.3%	.	0.9	?	-4

Next part:
13. CCCCN(C)CCCNC(=O)c1ccc2nc(N3CCCCC3)sc2c1
14. O=[N+]([O-])c1ccc(CSc2ncnc3ccccc23)cc1
15. CSc1nccc(N/N=C/c2ccccc2)n1
16. COC(=O)c1ccc(CSc2nccn2C)cc1
17. N#Cc1nc(-c2ccccc2F)oc1N1CCCC1
18. O=C(COC(=O)c1cccnc1Cl)Nc1cccc(S(=O)(=O)N2CCOCC2)c1

compound no.	13	14	15	16	17	18
Menin-MLL FL inh	.	-2.3	-2.9	-3.7	2.0	.
TRPV1 potentiator	.	3	-11	-11	1	.
PINK1 modulator	-0.1%	-1.4%	0.5%	3.3%	-7.7%[38.3 µM]	0.3%
Sfp inh	.	-14%	6%	-10%	12%	.
TRPML1 ag	-0.2	0.7	1.6	-0.1	-0.3	-0.4
ClpP mod	3.9%	0.6%	.	-0.1%	78%	-0.4%
TRPML1 blocker	8	14	33	-8	3	-19

19. COc1ccc(N(CC(=O)N2CCN(Cc3ccc4c(c3)OCO4)CC2)S(=O)(=O)c2ccc(F)cc2)cc1
20. CCOC(=O)C1=CCN(S(=O)(=O)c2ccccc2Cl)C1c1ccc(C)cc1 (stereo not given)
21. Cc1ccc(C)c(N2N=C(C(=O)OCc3nnc(-c4cccs4)o3)CCC2=O)c1
22. Cc1cc(C)n(/N=C/c2cc(Cl)cc(Cl)c2O)c(=O)c1
23. COc1cc2c3c(c1)C1(C(=O)N3C(C)(C)C=C2C)C(C#N)=C(N)Oc2cc(O)ccc21 (stereo not given)
24. CCc1ccccc1-n1c(SCC(=O)N2CCCC2)nnc1-c1ccccn1

compound no.	19	20	21	22	23	24
Menin-MLL FL inh	-1.2	.	.	?	0.2	3.8
TRPV1 potentiator	-3	.	-8	4	-4	-6
PINK1 modulator	-0.4%	1.5%	-1.2%	0.2%	-2.2%	-0.4%
Sfp inh	3%	.	.	9%	-8%	9%
TRPML1 ag	1.5	0.6	0.1	0.8	-0.8	-0.2
ClpP mod	-1.3%	0.4%	-5.0%	.	1.3%	-4.8%
TRPML1 blocker	16	3	-2	-5	-4	-13

Individual results from above.
Cc1ccc(C)c(N2N=C(C(=O)OCc3nnc(-c4cccs4)o3)CCC2=O)c1 @ TRPV1 potentiator: -8
CCOC(=O)C1=CCN(S(=O)(=O)c2ccccc2Cl)C1c1ccc(C)cc1 (stereo not given) @ TRPML1 blocker: 3
CCc1ccccc1-n1c(SCC(=O)N2CCCC2)nnc1-c1ccccn1 @ ClpP mod: -4.8%
Cc1cc(C)n(/N=C/c2cc(Cl)cc(Cl)c2O)c(=O)c1 @ Sfp inh: 9%

Going on with the list:
25. CC(C)C(NC(=O)c1ccc(C(C)(C)C)cc1)C(=O)NCC(c1ccccc1)N(C)C (stereo not given)
26. COc1ccc2[nH]c(C(=O)O)c(CCNC(C)=O)c2c1
27. c1ccc(OCCNc2ccn3nc(-c4ccco4)cc3n2)cc1
28. COc1ccc(CN(C)C(=O)c2[nH]c(C)c(C(C)=O)c2C)cc1F
29. CCOc1ccc(-n2c(C)c(C(=O)OC)c3cc(O)ccc32)cc1
30. COc1ccc(CCNC(=O)c2cc(S(=O)(=O)N3CCCC3)cn2C)cc1OC

compound no.	25	26	27	28	29	30
Menin-MLL FL inh	0.7	3.8	.	0.0	-0.4	0.6
TRPV1 potentiator	-16	-6	.	4	3	-14
PINK1 modulator	-0.4%	0.4%	0.3%	0.2%	3.2%	-0.2%
Sfp inh	-2%	12%	.	5%	?	1%
TRPML1 ag	-0.4	-0.1	-0.6	-0.6	0.6	0.0
ClpP mod	0.8%	8.9µM*	5.2%	.	.	-0.8%
TRPML1 blocker	13	1	.	36	0	3

31. CCC(=O)Nc1cccc(-c2nnc(-c3cccc(NC(=O)CC)c3)o2)c1
32. C1=CCC(CN2CCN(C3CCCCCC3)CC2)CC1 (stereo not given)
33. CC1Sc2ccc(S(=O)(=O)CCC(=O)Nc3ccccc3Cl)cc2NC1=O (stereo not given)
34. COc1ccccc1/C=C/C(=O)Oc1cccc2cccnc12
35. CCOC(=O)N1CCN(Cc2ccccc2Cl)CC1
36. Cc1cc(C)nc(NS(=O)(=O)c2ccc(NC(=O)c3nn(-c4ccccc4)ccc3=O)cc2)n1

compound no.	31	32	33	34	35	36
Menin-MLL FL inh	-2.2	-6.4	.	1.6	2.8	.
TRPV1 potentiator	4	3	-9	11	-6	19
PINK1 modulator	1.0%[38.3 µM]	-0.4%	0.9%	-0.3%	0.9%[38.3 µM]	-0.9%
Sfp inh	19%	?	29%	?	?	9%
TRPML1 ag	-0.3	-0.2	1.0	1.6	-0.6	4.7
ClpP mod	-7.5%	.	0.6%	-22%	-0.1%	2.2%
TRPML1 blocker	-1	-1	-15	56	24	0

37. CCN(c1ccccc1)S(=O)(=O)c1ccc(Cl)c(C(=O)O)c1
38. O=C(C[C@@H]1C/C=C\CCCC(=O)OC[C@@H]2CCCN2C1=O)NCCO
39. CC(=O)c1ccc(OCCCC(=O)Nc2cccc(-c3nn[nH]n3)c2)cc1
40. Cc1cc(NC(=O)CSc2ccc(Cl)cc2)no1
41. Cc1ccc(CN(Cc2ccco2)C(=O)COc2ccc(Cl)cc2)o1
42. COc1ccc(NC(=O)c2sc3nc4c(cc3c2N)CCCCCC4)c(OC)c1

compound no.	37	38	39	40	41	42
Menin-MLL FL inh	-1.4	.	-3.4	0.3	.	.
TRPV1 potentiator	2	.	1	-24	.	.
PINK1 modulator	1.1%	-0.5%	3.5%	-6.9%[38.3 µM]	-0.6%	2.7%
Sfp inh	10%	.	-2%	?	.	.
TRPML1 ag	-0.2	-0.6	-0.2	1.3	2.8	-1.3
ClpP mod	.	0.5%	-4.7%	-0.9%	-1.6%	4.2%
TRPML1 blocker	9	-2	-2	1	29	0

43. CSCc1c(C(=O)N2CCCc3ccccc32)oc2ccccc12
44. CCCCSCCCNC(=O)C1CCC(CNS(=O)(=O)c2ccccc2)CC1 (stereo not given)
45. CCN(CC)C(=O)C1CCCN(C(=O)Nc2ccc3nsnc3c2)C1 (stereo not given)
46. CC1(C(=O)Nc2ccc3c(c2)OCO3)CCN1Cc1ccccc1OC(F)F (stereo not given)
47. CC1CCN(c2ccc(-c3ccc(NC(=O)c4ccco4)cc3)nn2)CC1
48. O=C(O)CCC(=O)Nc1ccc(S(=O)(=O)c2ccc(NC(=O)CCC(=O)O)cc2)cc1
49. Nc1n[nH]c(N)c1N=Nc1cccc(C(F)(F)F)c1
50. COc1ccc2c(C(=O)c3ccc(C)cc3)n(CCCC(N)=O)[n+]([O-])c2c1
51. CCc1cc(C(=O)N/N=C/c2c(C)[nH]c3ccccc23)cs1

compound no.	43	44	45	46	47	48	49	50	51
Menin-MLL FL inh	.	-0.4	3.9	.	.	-0.7	-1.4	.	9.8
TRPV1 potentiator	-13	15	.	.	-3	6	-13	-15	8
PINK1 modulator	1.9%	4.2%&1.0%	-1.3%	0.0%	?	0.0%	3.5%	1.0%	3.2%
Sfp inh	.	11%	-12%	.	.	18%	0%	.	-5%
TRPML1 ag	2.9	1.0&3.3	-1.2	-0.8	1.1	0.5	.	-0.7	0.1
ClpP mod	-6.6%	-9.0%&-0.9%	-26%	-0.1%	-21%	-13%	1.3%	-3.3%	-0.9%
TRPML1 blocker	28	-9&17	7	.	1	1	.	-16	16
